# High-throughput results (PubChem BioAssay)
# Mtb MbtI inh = inhibitors of Mycobacterium tuberculosis siderophore enzyme MbtI | P9WFX0 | purified MbtI enzyme, fluorescence intensity read-out | inhibition, %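 (about 17 µg/mL by stock and volumes)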 | 100,000 compounds, 0.89% hits;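 active = above 50% in both replicates, above 80% if mildly self-fluorescent; inactive = the rest, strongly fluorescent compounds included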;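 note: 0% = mean of negative and 100% = mean of positive controls; one replicate is shown; some compounds called inactive have numbers as strong as hits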
# Target sequence (P9WFX0 whole entry, looked up): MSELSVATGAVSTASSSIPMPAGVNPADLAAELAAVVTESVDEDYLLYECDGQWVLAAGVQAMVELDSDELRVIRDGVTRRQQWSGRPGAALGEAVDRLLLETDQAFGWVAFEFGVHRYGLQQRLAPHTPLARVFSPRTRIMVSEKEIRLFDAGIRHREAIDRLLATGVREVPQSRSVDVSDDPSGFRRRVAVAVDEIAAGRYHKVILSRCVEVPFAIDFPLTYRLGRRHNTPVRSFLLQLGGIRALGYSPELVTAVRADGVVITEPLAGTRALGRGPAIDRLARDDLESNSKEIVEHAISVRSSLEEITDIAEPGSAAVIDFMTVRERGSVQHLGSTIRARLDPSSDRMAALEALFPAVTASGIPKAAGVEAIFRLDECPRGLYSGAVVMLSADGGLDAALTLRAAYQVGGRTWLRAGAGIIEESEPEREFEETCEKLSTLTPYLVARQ
# MenB inh = blocks the Mycobacterium tuberculosis MenB enzyme; MenB enzyme assay, absorbance read-out; some hits fall short of the stated cut; inhibition, %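 (about 12 µg/mL by stock and volumes)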; 100,000 compounds, 0.43% hits; AID 540299;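 active = mean of two replicates above 30%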;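 note: 0% = no compound and 100% = wells with inactive enzyme; the first replicate is given; strong numbers were not always called active; inactives centre near -10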
# Target sequence (P9WNP5 whole entry, looked up): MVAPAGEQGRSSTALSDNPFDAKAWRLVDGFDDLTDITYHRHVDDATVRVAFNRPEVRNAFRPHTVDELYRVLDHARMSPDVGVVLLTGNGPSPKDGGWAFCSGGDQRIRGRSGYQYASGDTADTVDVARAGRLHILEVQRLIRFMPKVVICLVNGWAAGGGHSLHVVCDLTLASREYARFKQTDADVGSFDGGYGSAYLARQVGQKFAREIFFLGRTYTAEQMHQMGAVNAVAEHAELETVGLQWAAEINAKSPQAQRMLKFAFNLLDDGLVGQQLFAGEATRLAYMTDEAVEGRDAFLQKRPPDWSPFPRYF
# PV pol inh = poliovirus RNA polymerase inhibition. poliovirus polymerase elongation, fluorescence polarization; active compounds read low. % elongation, % (compound at 16.7 µg/mL). 150,000 compounds, 0.66% hits. AID 588519; in the data active = % elongation below about 90%; note: some results filed as inactive read as strong as hits
# PV pol inh intensity = recorded beside PV pol inh, whose call it bears; % elongation; measured here: total intensity read-out; formula for this scale not given here;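 total fluorescence in place of polarization; lower means less elongation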
# * = called active by the depositor; · = not tested or not shown.
SMILES,Mtb MbtI inh,MenB inh,PV pol inh,PV pol inh intensity
CC(=O)ONC(=Nc1ccccc1C)c1nonc1N,-2,-4,105,101
COc1ccc2c(c1C)CCC1=C(C)C(=O)CCC12C (stereo not drawn),·,-27,101,93
CCn1ncc(C2=NOC(C(=O)NC3CCCCC3)C2)c1C (stereo not drawn),5,4,104,103
COc1ccc(C(=O)/C=C2/NCC3c4ccccc4CCN3C2=O)cc1 (stereo not drawn),·,-12,119,126
COC(=O)C1=C(N)Oc2cc(C)[nH]c(=O)c2C1c1ccccc1OC (stereo not drawn),-10,-3,101,103
O=C(Nc1cccc(F)c1)c1cccc(-c2cc3ccccc3oc2=O)c1,·,-2,107,114
CCOC(=O)N1CCC(NC(=O)Cn2ncc3c(=O)oc4ccc(C)cc4c32)CC1,-6,-11,101,103
CN(C)C(=S)SCC(=O)Nc1cccnc1Cl,-8,-36,107,106
COc1ccc(CCNC(=O)c2cc3ccccc3c(=O)o2)cc1OC,9,0,102,102
O=C(CCc1nc2ccccc2c(=O)[nH]1)Nc1ccc2c(c1)CCC2,19,7,101,104
COc1ccc(-c2nnc(SCC3CNC(=O)O3)n2C)cc1 (stereo not drawn),6,-20,105,104
CCN(C(=O)c1cccs1)C1CCS(=O)(=O)C1 (stereo not drawn),-5,-4,103,105
CCc1nc2cc(C)nn2c2nc3ccccc3n12,9,·,100,102
COc1ccc2nc(Nc3nnc(-c4cccs4)o3)sc2c1,12,-26,101,106
O=C(CCc1nc2ccccc2c(=O)[nH]1)NCc1ccccn1,3,-18,101,105
CCCn1c(=S)[nH]c2ccccc2c1=O,-3,-14,101,106
CC(=O)N1CCN(Cc2cc(=O)oc3cc(C)ccc23)CC1,-4,15,101,103
COc1ccccc1NS(=O)(=O)c1cccc(C(=O)N/N=C/c2c(CO)cnc(C)c2O)c1,-20,-127,120,135
O=C1Nc2ccccc2N(O)N1c1ccc(S(=O)(=O)N2CCCCCC2)cc1,-4,-9,105,104
CCOc1ccccc1C(=O)N1CCN(C(c2ccccc2)c2ccccc2)CC1,·,-11,105,106
O=c1c2ccccc2nc(SCc2ccccc2F)n1CCc1ccccc1,2,-15,103,100
COc1ccc(N2Cc3ccccc3C2=NC(=O)c2ccncc2)cc1,-12,·,102,107
CC1=NN(c2ccccc2)C(=O)/C1=C\c1ccc[nH]1,14,-57,102,98
Cc1ccc(NC(=O)c2c(Cl)nc3ccccn23)cc1,4,·,102,103
CCc1ccc(/C(C)=N/N=C(N)N)cc1,3,4,98,102
Cc1cc(C)c(C(=O)COC(=O)c2cccc(OCc3c(C)noc3C)c2)cc1C,-14,-17,106,107
CCOC(=O)c1c(NC(=O)c2cc3ccccc3o2)sc2c1CC(C)(C)OC2,·,-11,97,94
CC(=O)N1CCn2c3c(c(=O)c4cc(C)ccc42)CCC31 (stereo not drawn),98,-11,103,103
COc1ccc2c(Cl)c(C(=O)NN)sc2c1,-5,-4,100,106
O=C1N(C2CCCCC2)C(=NC2CCCCC2)SC12CC2,0,2,106,113
CC(C)(C)N1NC2(CCCCC2)NC1=O,-24,-23,103,105
Cn1nc(C(=O)O)c2ccccc2c1=O,1,7,103,101
Cc1cc(C(=O)Cn2c(=O)/c(=C\c3ccsc3)s/c2=C\C(=O)C(C)(C)C)c(C)n1C,-3,-9,112,112
CC(C)N(C(=O)CSc1ccc(-c2ccc3c(c2)OCCO3)nn1)C(C)C,-14,-3,96,105
COC(=O)CSc1nc2sc3c(c2c(=O)n1-c1ccccc1)CCC3,9,-25,103,107
CCOc1ccc(-n2cc(C(=O)N3CCN(c4ccccc4OC)CC3)c3cc(OC)c(OC)cc3c2=O)cc1,-5,10,100,102
COC(=O)c1nnn(CC(=O)Nc2ccccc2)c1C(=O)OC,2,-59,105,104
CC(C)n1c(-c2cccc(Br)c2)nc2ccccc21,-59,-5,101,104
O=C1NC(=O)c2cc(Cl)c(Cl)cc21,-2,-7,103,103
O=C(COc1ccc2c(c1)OCO2)Nc1ccccc1C(F)(F)F,-10,4,101,102
CNC(=S)N1CC2CC(C1)c1cccc(=O)n1C2 (stereo not drawn),7,-16,101,103
CCOC(=O)c1cccnc1SC(CC)C(=O)N1CCOCC1 (stereo not drawn),-11,-9,100,103
O=c1sn(-c2ccccc2C(F)(F)F)c(=O)n1CC1CC1,99*,3,100,100
CCc1nc2sc3c(c2c(=O)n1O)CCC3,-27,·,103,98
CCC(=O)N1N=C2CC(C)(C)OCC2C1c1ccccc1 (stereo not drawn),·,-7,101,107
O=C(NC1CCCCCC1)C1Cc2ccccc2CN1C(=O)c1ccco1 (stereo not drawn),6,13,102,97
CC1CCN(Cc2ccc(NC(=O)c3ccc4c(=O)n5c(nc4c3)CCCCC5)cc2)CC1,-2,-32,100,98
O=C(c1cccc(N2C(=O)C3CC=CCC3C2=O)c1)N1CCCc2ccccc21 (stereo not drawn),-4,-19,103,102
N#Cc1c(NC(NC(=O)c2ccccc2)C(=O)c2cccs2)sc2c1CCCC2 (stereo not drawn),10,-4,100,105
Cc1ccc(NC2SC(=O)NC2=O)cc1 (stereo not drawn),-14,·,100,105
O=C1CC(N2CCCCC2)C=C1Nc1ccc(F)cc1 (stereo not drawn),·,-1,115,118
Cc1n[nH]c(=O)c2noc(/C=C/c3ccc(Cl)c(Cl)c3)c12,9,3,99,103
FC(F)(F)c1nnc2ccc(N3CCCCC3)nn12,-6,8,97,101
N#CC1=C2SCN(CCCc3ccccc3)CN2C(=O)CC1c1ccc(Cl)cc1 (stereo not drawn),41,-11,102,101
Cc1cc(C)c2cc(C(=O)N3CCC(Cc4ccccc4)CC3)[nH]c2c1,-11,10,108,106
CCC1CCCCN1C(=O)COC(=O)COc1ccc(Br)cc1 (stereo not drawn),-6,·,103,107
CCOc1ccc(-c2cc(NC(=O)CCSCCc3ccccn3)on2)cc1OCC,1,-38,101,102
NC(=S)c1cnc(-c2ccncc2)nc1N,4,0,99,109
CCOC(=O)N1CCN(C(=O)c2ccc3nc(-c4ccccc4)c(-c4ccccc4)nc3c2)CC1,·,2,107,113
C=CCn1c(SCC(=O)c2cccs2)nc2sc(C)cc2c1=O,-3,22,101,102

# The listing continues:
SMILES,Mtb MbtI inh,MenB inh,PV pol inh,PV pol inh intensity
C=CCN1C(=O)c2ccccc2Sc2ccc(C(=O)NCC(OC)OC)cc21,-10,-19,101,104
Cc1cc(=O)oc2c3c(ccc12)OCN(c1ccccc1)C3,117,4,102,103
O=c1[nH]c2ccccc2c(=O)o1,115,-4,101,103
CC(=O)NC12CC3CC(C1)CC(C(=O)Nc1ccc(N4CCCCC4)cc1)(C3)C2,-17,-20,107,113
Cc1ccc(S(=O)(=O)NCCCO)cc1C(=O)O,3,9,99,99
O=C(CN1CCN(C2CCCCC2)CC1)N(c1ccccc1)c1ccc(O)cc1,-11,-55,103,100
CCCc1ccc(OCCNC(C)=O)c(OC)c1,-15,12,101,103
CCN1CCN(C(c2cccnc2)c2c(NC(C)=O)sc3c2CCCC3)CC1 (stereo not drawn),17,11,102,103
CC(=O)N1c2ccccc2N(C)C(=O)C1(C)C,-2,4,101,101
CCCN1CC=C2C(C#N)=C(N)C(C#N)(C#N)C3(C(=O)Nc4ccccc43)C2C1 (stereo not drawn),-1,-57,91,153
Cc1c(N/C=C/C(=O)C(F)(F)F)c(=O)n(-c2ccccc2)n1C,11,-33,98,101
N#CCCN/N=C/c1ccc(-c2ccc(SC(F)F)cc2)o1,95,-3,113,120
O=c1oc2cc(O)ccc2cc1-c1cccc(Br)c1,·,-32,108,108
Cc1cc(S(=O)(=O)NCC(C)C)ccc1OCC(=O)N1CCN(Cc2ccc3c(c2)OCO3)CC1,-10,-9,99,103
Cc1ccc(C(=O)N/C(=C\c2cccnc2)C(=O)N2CC3CC(C2)c2cccc(=O)n2C3)cc1 (stereo not drawn),-24,-14,102,102
CCC(=O)N(Cc1cc(=O)[nH]c2ccccc12)C1CCCCC1,-26,-36,103,103
CCC(C)(C)n1nnnc1C(C(C)C)N(Cc1cccnc1)Cc1ccco1 (stereo not drawn),-5,-17,99,100
O=C(NCc1ccco1)C1c2ccccc2Oc2ccccc21,1,11,103,102
CC(C)(C)C(=O)CSc1nc2c(sc(=S)n2CCc2ccccc2)c(=O)n1Cc1ccco1,-5,-12,105,102
COc1ccc(C2=NOC(C(=O)NCCc3ccccc3)C2)cc1 (stereo not drawn),-10,-29,105,101
Cc1ccc(-c2nnc(N(CC(C)C)C(=O)c3ccco3)s2)cc1,14,-43,104,103
O=C1OCCC1OC(=O)C12CC3CC(CC(C3)C1)C2 (stereo not drawn),-10,·,100,106
O=S(=O)(c1ccc(Br)cc1)N1CCOCC1,-1,-29,103,105
Cc1cccnc1NC(=O)c1ccccc1C(=O)O,68,-28,103,100
O=C(Cc1ccc(-n2c(=S)[nH]c3ccccc3c2=O)cc1)NC1CCCCC1,10,-15,99,102
OCCNc1nc(-c2cccnc2)nc2ccccc12,6,-1,103,101
CCO/C=N/S(=O)(=O)c1ccccc1,6,-16,100,106
Cc1cc(NN)nc(-c2ccccc2O)n1,3,-87,102,103
CCc1ccc(NS(=O)(=O)c2ccc3[nH]cc(C(=O)N4CCCCC4)c(=O)c3c2)cc1,4,12,99,96
O=C(N/N=C/c1cccc(S(=O)(=O)N2CCOCC2)c1)C1=COCCO1,7,11,106,108
CCO/C=N/c1oc(-c2ccccc2)nc1C#N,100,10,103,107
O=C1OC(c2ccccc2)=N/C1=C\c1ccccc1C(F)(F)F,35,-11,103,107
N#Cc1ccc(COC(=O)c2cc3ccccc3c(=O)[nH]2)cc1,23,12,106,108
Cn1c(C2CC2)n[nH]c1=S,17,-52,108,101
O=C(CSc1nnc(-c2ccncc2)o1)NC1C2CC3CC(C2)CC1C3 (stereo not drawn),9,-11,105,103
CC12CN3CC(C)(CN(C1)C3c1ccc(O)cc1O)C2=O (stereo not drawn),-11,-11,103,110
CC1CCCCC1NC(=O)COC(=O)/C=C/c1ccc2c(c1)OCO2 (stereo not drawn),-10,-17,101,98
Cn1nnnc1SCCNCc1ccccn1,-7,28,102,105
O=C1CN(c2ccccc2)C(=S)N1C(=O)c1ccccc1,-9,-21,104,102
COc1cc2c(cc1OC)C(C)N(S(=O)(=O)c1ccc3[nH]c(=O)ccc3c1)CC2 (stereo not drawn),0,-4,104,107
O=C(CCS(=O)(=O)c1ccc(Br)cc1)N1CCCCCC1,-1,9,103,96
CCOC(=O)c1c(NC(=O)COC(=O)/C=C/c2ccco2)sc(CC)c1C,-5,-3,100,102
CCc1ccc(OCc2ccc(C(=O)Nc3nc4ccccc4n3CCN3CCCCC3)o2)cc1,3,-5,101,102
CCOC(=O)c1cnc2c(C(F)(F)F)cccc2c1N1CCN(C)CC1,9,5,103,98
COC(=O)c1ccc(NC(=O)N2CCOc3ccc(C)cc32)cc1,13,4,103,99
CCOC(=O)c1c(C)c(C#N)c(/N=C/N(C)C)n1-c1ccc(Cl)cc1Cl,-1,12,105,115
COc1ccccc1N(CC(=O)Nc1cc(C)on1)S(=O)(=O)c1ccc(Cl)cc1,-2,-15,98,96
Cc1ccc(C)[n+](C)c1,76,-86,104,104
COc1ccc(NC(=O)CC(C)NCc2ccc(CN3CCCC3)cc2)cc1 (stereo not drawn),-6,-6,96,101
CC(=O)Nc1sc2c(c1CN1CCCC1)CCCC2,21,13,108,103
O=C(c1cn(Cc2ccccc2)nc1-c1ccccc1)N1CCN(CCO)CC1,-7,-14,103,106
COc1ccccc1C(C)NCC(=O)Nc1ccccc1C(=O)NC1CC1 (stereo not drawn),-12,12,105,105
CC(Nc1ncnc2c1oc1ccccc12)C1CC2CCC1C2 (stereo not drawn),-5,-15,100,102

# Gathered by group: those above containing a thiophene ring, fused or not.
SMILES,Mtb MbtI inh,MenB inh,PV pol inh,PV pol inh intensity
CCN(C(=O)c1cccs1)C1CCS(=O)(=O)C1 (stereo not drawn),-5,-4,103,105
COc1ccc2nc(Nc3nnc(-c4cccs4)o3)sc2c1,12,-26,101,106
CCOC(=O)c1c(NC(=O)c2cc3ccccc3o2)sc2c1CC(C)(C)OC2,·,-11,97,94
COc1ccc2c(Cl)c(C(=O)NN)sc2c1,-5,-4,100,106
Cc1cc(C(=O)Cn2c(=O)/c(=C\c3ccsc3)s/c2=C\C(=O)C(C)(C)C)c(C)n1C,-3,-9,112,112
COC(=O)CSc1nc2sc3c(c2c(=O)n1-c1ccccc1)CCC3,9,-25,103,107
CCc1nc2sc3c(c2c(=O)n1O)CCC3,-27,·,103,98
N#Cc1c(NC(NC(=O)c2ccccc2)C(=O)c2cccs2)sc2c1CCCC2 (stereo not drawn),10,-4,100,105
C=CCn1c(SCC(=O)c2cccs2)nc2sc(C)cc2c1=O,-3,22,101,102
CCN1CCN(C(c2cccnc2)c2c(NC(C)=O)sc3c2CCCC3)CC1 (stereo not drawn),17,11,102,103
CCOC(=O)c1c(NC(=O)COC(=O)/C=C/c2ccco2)sc(CC)c1C,-5,-3,100,102
CC(=O)Nc1sc2c(c1CN1CCCC1)CCCC2,21,13,108,103
